PrPC TRFRET: cell surface PrPC inhibition, primary TR-FRET screen. TR-FRET read-out. inhibition, % at 13.8 µM. actives 0.43% (n = 370,000). P04156; in the data active = inhibition above about 24%; note: 0% = median of the test wells and 100% = reference compound wells
FBA Mtb inh: inhibitors of M. tuberculosis fructose-bisphosphate aldolase; P9WQA3; purified M. tuberculosis FBA, fluorescence read-out; inhibition, % at 1 µM; actives 2.3% (n = 360,000); AID 588726; in the data active = inhibition above about 27%;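 note: 0% = vehicle and 100% = reference inhibitor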
Target sequence (P9WQA3 whole entry, looked up): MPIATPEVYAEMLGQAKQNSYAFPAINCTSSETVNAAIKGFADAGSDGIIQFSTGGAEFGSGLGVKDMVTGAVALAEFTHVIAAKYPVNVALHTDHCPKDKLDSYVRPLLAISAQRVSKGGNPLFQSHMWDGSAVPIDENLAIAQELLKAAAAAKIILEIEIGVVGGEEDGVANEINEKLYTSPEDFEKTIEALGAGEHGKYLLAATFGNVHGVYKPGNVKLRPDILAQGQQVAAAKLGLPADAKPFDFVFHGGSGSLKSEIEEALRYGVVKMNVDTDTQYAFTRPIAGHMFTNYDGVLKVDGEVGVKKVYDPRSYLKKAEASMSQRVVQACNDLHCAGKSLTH
UGM FP inh: Mtb UDP-galactopyranose mutase inhibition; P9WIQ1; purified UGM, fluorescence polarization probe displacement; inhibition, % at 10 µM; actives 0.06% (n = 320,000); AID 504406; in the data active = inhibition above about 10%, passing the limit was not always enough
* hit, by the source's call; . = not tested or not shown. Only part of the results is shown. The share of hits here may be higher or lower than overall.

Structure	PrPC TRFRET	FBA Mtb inh	UGM FP inh
O=S(=O)(c1ccc(F)cc1)n1cnc2ccccc21	9.3	-1.4	-0.3
O=C(O)c1cc(S(=O)(=O)N2CC=C(c3ccccc3)CC2)ccc1O	0.6	3.7	-1.5
Cn1c(=O)n(C)c2cc(N3CCCCC3)c(NC(=O)c3ccccc3)cc21	3.5	-2.2	1.4
Cc1nc2ccccc2c(-c2ccccc2)c1CC(=O)O	-1.6	-3.8	-0.1
N#Cc1c(-c2ccc(Cl)cc2)c(-c2ccc(Cl)cc2)nn(CCO)c1=O	-18.8	2.1	.
O=C(c1ccccc1)c1ccccc1	7.6	3.6	-1.3
C=C(CN(C)C)C(=O)c1cc(OC)c(OC)cc1OC	-4.2	4.3	.
CCCC(=O)c1ccc(O)cc1O	3.7	1.7	.
CC(=O)N1CCN(C(c2ccccc2)c2ccccc2)CC1	0.6	3.4	0.0
COc1ccc2cc([C@H](C)C(=O)O)ccc2c1	6.3	2.6	-4.2
N#Cc1ccc(OCC(O)CN2CCC(C(O)(c3ccccc3)c3ccccc3)CC2)cc1 (configuration not stated)	-16.4	-2.6	-1.1

Quoted from the listing:
N#Cc1c(-c2ccc(Cl)cc2)c(-c2ccc(Cl)cc2)nn(CCO)c1=O | PrPC TRFRET: -18.8
Cc1nc2ccccc2c(-c2ccccc2)c1CC(=O)O | PrPC TRFRET: -1.6

Part of the list above, showing only PrPC TRFRET and UGM FP inh:
| structure | PrPC TRFRET | UGM FP inh |
| --- | --- | --- |
| N#Cc1c(-c2ccc(Cl)cc2)c(-c2ccc(Cl)cc2)nn(CCO)c1=O | -18.8 | . |
| O=C(c1ccccc1)c1ccccc1 | 7.6 | -1.3 |
| C=C(CN(C)C)C(=O)c1cc(OC)c(OC)cc1OC | -4.2 | . |
| CCCC(=O)c1ccc(O)cc1O | 3.7 | . |
| CC(=O)N1CCN(C(c2ccccc2)c2ccccc2)CC1 | 0.6 | 0.0 |

Assay outcomes (PubChem)
